Rce1 inh: blocks yeast Ras-converting enzyme | Q03530 | yeast membranes, quenched prenylated peptide cleavage fluorescence | calls only | actives 0.27% (n = 290,000);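 active = fall in fluorescence gain of 50% or more versus controls, with final raw signal at or below 3038400; inconclusive = same 50% fall but final raw signal above 3038400; inactive = fall in fluorescence gain under 50%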;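 note: plate controls were neutral control wells for no effect and wells lacking membranes for full effect; tested at 10 µM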
Target sequence (Q03530 whole entry, looked up): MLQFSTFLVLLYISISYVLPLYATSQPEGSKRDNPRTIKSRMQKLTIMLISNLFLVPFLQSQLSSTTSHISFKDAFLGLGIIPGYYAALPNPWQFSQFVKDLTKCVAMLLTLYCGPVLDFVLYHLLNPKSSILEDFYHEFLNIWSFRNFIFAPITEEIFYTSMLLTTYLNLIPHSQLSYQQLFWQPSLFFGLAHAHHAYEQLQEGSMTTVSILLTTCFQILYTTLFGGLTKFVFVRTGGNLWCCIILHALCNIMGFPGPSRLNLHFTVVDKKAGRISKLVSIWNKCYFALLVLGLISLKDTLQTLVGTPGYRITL
UUG fidelity: yeast start codon fidelity modulation | actives 0.13% (n = 350,000) | activity score, % at 18.7 µM | S. cerevisiae UUG-firefly luciferase reporter, luminescence/redox ratio;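 active = replicate mean at a twofold rise or more, about +100% in these data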;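 note: firefly luciferase made from a UUG start codon reports start codon fidelity; reporter light over untreated wells divided by growth signal over untreated wells; some hits fall short of that in this replicate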
CSC inhib: blocks cancer stem cells. inhibition, % at 7.5 µM. AID 2717. cancer stem cell-like cells viability, luminescence. actives 1.1% (n = 300,000);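 active = mean at 75% or more and at least half the replicates too; inconclusive = mean and replicates disagree; tested in HMLE shEcad cells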;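 note: 0% = median of negative and 100% = median of positive control wells; the first replicate is given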
HIV Env fusion: blocks HIV Env-driven cell-cell fusion; HeLa-JRFL Env/CEM21 cell fusion, luciferase; inhibition, % at 12.3 µM; actives 1.1% (n = 360,000); AID 651610;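 active = mean replicate inhibition score of at least 50 and every replicate individually at or above 50; inconclusive = only one of the two criteria met; inactive = mean below 50 and not all replicates reaching 50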;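 note: 0% = plate neutral controls and 100% = maraviroc near 300 nM; one replicate is shown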
eIF4H FP inh: inhibitors of RNA binding by human eIF4H | actives 0.94% (n = 290,000) | inhibition, % at 35 µM | eIF4H fluorescence polarization binding assay | Q15056 | AID 2012;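 active = 50% or more with normal probe brightness, or confirmed in later tests; inconclusive = above 50% with abnormal brightness, or retests that disagree; inactive = below 50% or failed in later tests; about a fifth of its hits are not listed in these tables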;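 note: calls also rest on retests at 20 µM and on dose response follow-up; 0% = protein and probe with vehicle and 100% = probe without protein; strong numbers were not always called active; many hits fall short of the cut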
PABP polyA inh: PABP-poly(A) binding inhibition. P11940. inhibition, % at 35 µM. actives 1% (n = 290,000). PABP-poly(A) RNA binding, fluorescence polarization;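 active = 50% or more with normal probe brightness, or confirmed in later tests; inconclusive = above 50% with abnormal brightness, or retests that disagree; inactive = below 50% or failed in later tests; about a fifth of its hits are not listed in these tables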;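 note: calls also rest on retests at 20 µM and on dose response follow-up; controls were probe without protein and protein plus probe with vehicle; some compounds called inactive have numbers as strong as hits; many hits fall short of the cut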
MT1-MMP act inh: blocks activation of human MT1-MMP | actives 0.061% (n = 360,000) | GFP/RFP ratio change, % at 20 µM | HT1080 RFP-PRO-GFP cells, GFP/RFP ratio fluorescence, overnight; percent of plate control window, DMSO zero | P50281;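 active = GFP/RFP ratio change of at least 30% with cell ATP level not reduced by more than half and red fluorescence within 50% of control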; note: strong numbers were not always called active
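Assay system: HT1080 RFP-PRO-GFP cells | Dosing: 20 µM single dose, 1% DMSO | Incubation: Cells overnight before dosing, compound overnight, 37 °C, 5% CO2 | Evaluation: GFP/RFP fluorescence ratio | Control set: DMSO-only wells and HT1080 RFP-L50D-GFP cell wells as references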
eIF4H FP inh retest: also measured in eIF4H FP inh; calls as there; inhibition, %; compound at 20 µM; confirmation average;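 mean of two retest wells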
PABP polyA inh retest: second read-out of PABP polyA inh, no call of its own (marks repeat the call); inhibition, %; compound at 20 µM; confirmation repeats;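 mean of two retest wells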
MT1-MMP act inh RFP: further read-out of MT1-MMP act inh, marked with its call; RFP signal change, %; measured here: RFP expression control read;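 0 = vehicle wells; hits needed this value within 50% of zero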
* hit, by the source's call; i = inactive; ? = inconclusive; . = not tested or not shown; & = joins results of further samples; [ ] = remark or other dose. Only part of the results is shown; count on the stated rates, not on these rows.

SMILES | Rce1 inh | UUG fidelity | CSC inhib | HIV Env fusion | eIF4H FP inh | PABP polyA inh | MT1-MMP act inh | MT1-MMP act inh RFP | others
O=C(Nc1ccc(Oc2ccc(Cl)cc2)cc1)c1ncn[nH]1 | i | -7 | 4 | . | 6 | 2 | -4 | -6
CCO[C@H]1OC(C(=O)NC2CC2)=C[C@@H](c2coc3ccccc3c2=O)[C@@H]1CCCO | i | 10&-3 | -17 | -24[16.7 µM] | -1 | 15 | -4 | 4
CC1CC(=O)c2cnc(N)nc2C1 (stereo not drawn) | i | -13 | -3 | -6 | -5 | -5 | 0 | 2
COC(=O)N/N=C(\C)c1cccc(C(F)(F)F)c1 | i | . | -15 | -21 | -6 | 9 | 3 | 5
COc1ccc(-n2c(NC(=O)c3ccc(Br)o3)c(C#N)c3nc4ccccc4nc32)cc1 | i | . | . | . | 21 | 7 | . | .
O=c1[nH]c(/C=C/c2ccc([N+](=O)[O-])cc2)c([N+](=O)[O-])c(=O)[nH]1 | i | -14 | -15 | -10 | 29 | 6 | -4 | -5
CCc1cccc(NC(=O)c2cc(OC)c(OC)c(OC)c2)c1 | i | . | -11 | -4 | 5 | 58 | 5 | -4 | eIF4H FP inh retest=3;PABP polyA inh retest=8
CC(C)NC(=O)NC(=O)COC(=O)CCCSc1nc2ccccc2s1 | i | -10 | 9 | -6 | 2 | -2 | -1 | 4
O=C1CN(C(=O)c2ccc(Br)o2)C(c2ccc(F)cc2)c2cc(F)ccc2N1 (stereo not drawn) | i | 2 | 8 | ? | 7 | -14 | -37 | -19
Cc1ccc(S(=O)(=O)N2CCN(C(=O)CCOc3cc(C)ccc3C)CC2)cc1 | . | 3 | 0 | 5 | . | . | 1 | -8
COc1ccc(C2c3c(ccc4ccccc34)Oc3ncn4nc(Cc5ccccc5)nc4c32)cc1OC (stereo not drawn) | i | . | 20 | -5 | 6 | 6 | 9 | 0
C[n+]1ccn(CC(=O)c2ccc(Br)cc2)c1 | i | . | -23 | 25 | -12 | 1 | 2 | 3
COC(=O)CCN1CCC2CC1c1cc(Cl)ccc12 (stereo not drawn) | . | -5 | . | 0 | . | . | 4 | 9
CC(=O)Nc1ccc(S(=O)(=O)N2CCCN(c3nc(C)cc(C)c3C#N)CC2)cc1 | i | -3 | -8 | 2 | -1 | 5 | -1 | 1
CCCSCCCNC(=O)Cn1cc2c(n1)CCC(C)C2 (stereo not drawn) | i | -5 | . | 4 | -16 | -10 | 3 | 6
O=C(Nc1ccc(N2CCOCC2)cc1)C1(S(=O)(=O)c2ccccc2)CC1 | i | -7 | -21 | -33 | -3 | 5 | -11 | -1
COc1ccc(CN(C)CC(=O)Nc2ccccc2C(F)(F)F)c(OC)c1 | i | -22 | -5 | 16 | 0 | -9 | 0 | 7
Cc1cccc(C)c1NC(=O)CNC(=O)c1ccc(COc2ccccc2)cc1 | . | -20 | 8 | 1 | . | . | 0 | 3
COc1ccccc1C(=O)N1C(CC(=O)Nc2ccc(C)c(C)c2)C(=O)NC2CCCCC21 (stereo not drawn) | i | 2 | -11 | 14 | -2 | 11 | 1 | 6
CC(=O)[C@H]1[C@H](c2cccc(Cl)c2)C(C#N)(C#N)[C@@H]2c3ccccc3C=CN21 | i | . | 2 | . | 21 | 19 | . | .
Cc1cc(C)c(C)c(S(=O)(=O)NCc2ccc(C(=O)NCC3CCCO3)cc2)c1C (stereo not drawn) | i | -18 | 6 | -19 | -12 | 3 | 1 | -2
Cc1onc(-c2ccccc2)c1-c1ccnn1C(=O)NC(C)C | i | . | 5 | 34 | 0 | -7 | -1 | 1
O=C(Oc1cccc(NC2=NS(=O)(=O)c3ccccc32)c1)c1ccncc1 | i | -14 | -7 | 10 | -4 | 1 | 3 | 0
CCCn1c(=N)n(CC(=O)c2ccco2)c2ccccc21 | i | 12 | -8 | -3 | -13 | 7 | 0 | 3
c1ccc(CN(Cc2ccccc2)c2nn[nH]n2)cc1 | i | -2 | -9 | 2 | -1 | -8 | 4 | 4
(more compounds)
SMILES | Rce1 inh | UUG fidelity | CSC inhib | HIV Env fusion | eIF4H FP inh | PABP polyA inh | MT1-MMP act inh | MT1-MMP act inh RFP | others
CC(=O)Nc1ccc(NC(=O)C2CCCN2S(=O)(=O)c2cccc(C(F)(F)F)c2)cc1 (stereo not drawn) | i | -7 | -11 | 22 | -12 | -2 | 0 | 4
COc1ccc(C=O)cc1Cn1c(C)cc(C)c(C#N)c1=O | i | -7 | 23 | 0 | 2 | -9 | 3 | 7
COC(=O)c1ccc(C2C(C(C)=O)=C(C)Nc3ncnn32)cc1 (stereo not drawn) | i | -6 | -8 | -6 | -2 | 5 | 5 | 5
O=C(NCc1ccc2c(c1)OCO2)c1ccc(CS(=O)Cc2ccc(Cl)cc2)o1 (stereo not drawn) | i | -11 | 15 | 11 | 4 | 6 | 2 | -3
CC(C)Oc1cccc(C(=O)NC(=S)Nc2ccc(N3CCN(C)CC3)cc2)c1 | i | -27 | 21 | -13 | -2 | 2 | -2 | -5
Cc1nc2ccccc2c(=O)n1/N=C/c1ccc(OC(F)F)cc1 | i | -13 | -3 | 11 | -7 | -1 | 3 | 1
COc1ccc(NC2=CC(=O)CC(c3ccc(C)cc3)C2)c(OC)c1 (stereo not drawn) | i | 2 | -2 | . | . | . | -12 | 0
COc1ccc(OC)c(NC(=O)c2ccc(NC3=NC4CS(=O)(=O)CC4S3)cc2)c1 (stereo not drawn) | i | -24 | . | -26 | 5 | -4 | 0 | 0
Cc1ccc(/C(N)=N/OC(=O)C23CC4CC(CC(C4)C2)C3)cc1 | i | -20 | . | -50 | 0 | -2 | 4 | -4
COc1ccc2nc(NCc3ccc(OC)c(OC)c3OC)sc2c1 | . | -6 | . | 5 | . | . | 7 | -8
O=C(c1ccncc1)N1CCN(C(=O)c2cccs2)CC1 | i | -13 | . | . | -1 | -5 | 6 | 6
CCCc1cc(=O)oc2c3c(cc(OCC(=O)NCCN4CCOCC4)c12)OC(C)(C)CC3 | . | -11 | -6 | . | 3 | 6 | 4 | 2
O=C(CC12CC3CC(CC(C3)C1)C2)Nc1c(F)cccc1F | i | -12 | . | . | 5 | 4 | -3 | -1
C=C1CCN(C(C)C(=O)O)S(=O)(=O)c2ccccc21 (stereo not drawn) | i | -5 | 12 | -42 | -9 | 4 | 1 | 1
COc1ccc(OC)c(NC(=O)c2ccc(NS(=O)(=O)c3c(C)noc3C)cc2)c1 | i | -8 | 9 | 15 | 3 | 3 | 3 | -4
COc1cccc(-c2coc3c(C)c4oc(=O)c(CC(=O)O)c(C)c4cc23)c1 | i | -16 | -6 | 5 | 6 | 14 | 4 | -5
COCCN(C(=O)CSc1nc(N)cc(=O)[nH]1)c1c(N)n(Cc2ccccc2)c(=O)[nH]c1=O | i | -9 | -1 | -4 | . | . | -1 | 5
Cc1ccc(S(=O)(=O)N2CCN(C(=O)c3nn(C(C)C)c(=O)c4ccccc34)CC2)cc1C | i | 14 | -1 | . | 5 | -3 | 2 | -1
Cc1oc2c(cc(NS(=O)(=O)c3ccc(C(C)C)cc3)c3ccccc32)c1C(=O)O | i | -8 | 27 | 10 | 66* | 64* | -14 | 5
O=C(CSc1cccc[n+]1[O-])C12CC3CC(CC(C3)C1)C2 | i | . | -3 | -7 | 10 | 0 | 5 | -1
Cn1c(SCC(=O)NNC(=O)Nc2ccccc2)nnc1-c1ccccc1 | i | -12 | -2 | 8 | 1 | 7 | 2 | -2
CN(C(=O)COC(=O)c1ccc(=O)n(Cc2ccccc2)n1)C1CCS(=O)(=O)C1 (stereo not drawn) | i | -13 | -7 | 5 | . | . | -6 | 0
O=C(NS(=O)(=O)c1ccc(Cl)s1)c1ccccc1 | i | -21 | -1 | 2 | 0 | -4 | -1 | -4
Cc1cccc(CN2CCC(n3nccc3NC(=O)c3ccccc3C)CC2)n1 | i | -16 | -6 | . | 0 | -8 | 2 | 5
O=C(NC(=S)Nc1ccc(Cc2ccncc2)cc1)c1ccc(F)cc1 | i | . | . | -22 | -10 | -2 | -4 | -13

As a working copy, part of the list above.
SMILES | Rce1 inh | UUG fidelity | CSC inhib | HIV Env fusion | eIF4H FP inh | PABP polyA inh | MT1-MMP act inh | MT1-MMP act inh RFP | others
Cc1ccc(/C(N)=N/OC(=O)C23CC4CC(CC(C4)C2)C3)cc1 | i | -20 | . | -50 | 0 | -2 | 4 | -4
COc1ccc2nc(NCc3ccc(OC)c(OC)c3OC)sc2c1 | . | -6 | . | 5 | . | . | 7 | -8

The results go on:
SMILES | Rce1 inh | UUG fidelity | CSC inhib | HIV Env fusion | eIF4H FP inh | PABP polyA inh | MT1-MMP act inh | MT1-MMP act inh RFP | others
O=S(=O)(c1cccs1)N1CCN(c2ccc(O)cc2)CC1 | i | -12 | 61 | 31 | 3 | -6 | -2 | 5
COc1ccc(CCNC(=O)c2cc(-c3ccccc3)c(N3CCOCC3)s2)cc1OC | i | -3 | 36 | 18 | . | . | -4 | -10
O=C(c1ccc2c(c1)OCCO2)N1CCCC(CNS(=O)(=O)c2cccs2)C1 (stereo not drawn) | i | . | -1 | 3 | 1 | -4 | -2 | -2
Cc1ccc(-n2nnnc2SCC(=O)NC(=O)Nc2ccc3c(c2)OCCO3)cc1 | i | . | . | . | -2 | -3 | -5 | -3
Cn1ccnc1Sc1ccc(/C=N/NC(=O)c2ccccc2O)cc1[N+](=O)[O-] | i | -18 | 12 | -12 | 8 | -8 | 6 | 3
COCCn1c(SCC(=O)Nc2ccc(S(=O)(=O)N3CCOCC3)cc2)nc2ccccc21 | . | 5 | -2 | -28 | -6 | -4 | -7 | 5
O=Cc1ccc(C(=O)OCC(=O)NCCC2=CCCCC2)cc1 | i | -18 | -7 | -23 | . | . | 0 | 0
COc1ccc(C(=O)Nc2ccccn2)cc1S(=O)(=O)N1CCOCC1 | i | 12 | 9 | 6 | -4 | -7 | 0 | 2
CCCc1cc(=O)oc2c3c(cc(OCC(=O)NCc4ccccn4)c12)OC(C)(C)CC3 | i | -18 | -14 | . | -1 | -1 | 7 | -6
O=C(C1CCCO1)N1CCN(c2ncccn2)CC1 (stereo not drawn) | i | 11 | . | -10 | -8 | -2 | -1 | 3
CC(=O)NC(CC(=O)OCC(=O)N1CCN(S(=O)(=O)c2ccc(C)cc2C)CC1)c1ccccc1 (stereo not drawn) | . | -3 | . | -11 | . | . | 6 | -5
O=C(CN1CCOCC1)N/N=C/c1ccc(-c2ccc(C(=O)O)cc2)o1 | i | . | -9 | 13 | 25 | 68* | -3 | 1 | eIF4H FP inh retest=32;PABP polyA inh retest=91*
CC(C)c1nc(SCC(=O)Nc2ccc(N(C)C)cc2)c2ccccc2n1 | i | . | 33 | -2 | -6 | -10 | -2 | -9
O=C(COc1ccc(Br)cc1CO)Nc1ccccc1 | i | -19 | -1 | -40 | -1 | 9 | -2 | -4
Cc1nc2n(n1)CC(O)CS2 (stereo not drawn) | i | -18 | 13 | -25 | -4 | 2 | -1 | 7
Cn1nccc1NS(=O)(=O)c1ccc(C(C)(C)C)cc1 | . | . | -16 | -5 | 2 | -1 | 5 | -6
NC(=O)C1CCN(S(=O)(=O)c2ccccc2[N+](=O)[O-])CC1 | i | 15 | -13 | 2 | 8 | -1 | 2 | 2
CCOc1ccc(NC(=O)C2CCCN2C(=O)OCc2ccccc2)cc1 (stereo not drawn) | i | -13 | -19 | 3 | 1 | 4 | -1 | -2
Nc1ccc2c(c1)N1CCN=C1S2 | i | -6 | -10 | 6 | 7 | 2 | 0 | 0
